# Screens deposited in PubChem BioAssay by National Center for Advancing Translational Sciences (NCATS).
# VDR inh: Inhibitors of the vitamin D receptor (VDR): qHTS. AID 504847, 2011. Potency, µM, for inactives: max response, negative = inhibition, hits mostly inhibitors. VDR-SRC2-3 peptide fluorescence polarization, 2 h. actives 0.93% (n = 400,000); active = well fitted inhibition curve with a large enough effect; inconclusive = small, poorly fitted or top-dose-only effect, or another doubt; inactive = no such curve, though single readings can be large or run the other way; also: series mostly up to about 120 µM
# Target sequence (P11473 whole entry, looked up): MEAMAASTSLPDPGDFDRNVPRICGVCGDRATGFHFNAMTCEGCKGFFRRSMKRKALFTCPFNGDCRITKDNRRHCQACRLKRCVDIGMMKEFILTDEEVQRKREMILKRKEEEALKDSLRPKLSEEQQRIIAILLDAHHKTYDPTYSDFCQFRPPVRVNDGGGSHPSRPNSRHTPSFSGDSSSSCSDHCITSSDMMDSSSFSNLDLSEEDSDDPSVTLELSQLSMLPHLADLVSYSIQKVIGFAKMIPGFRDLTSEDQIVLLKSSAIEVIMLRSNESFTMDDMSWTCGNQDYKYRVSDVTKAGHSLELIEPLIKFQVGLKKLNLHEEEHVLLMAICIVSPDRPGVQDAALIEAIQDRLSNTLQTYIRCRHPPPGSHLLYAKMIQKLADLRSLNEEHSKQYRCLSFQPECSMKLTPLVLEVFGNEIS
#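 The screen uses fluorescence polarization to detect compounds that interfere with recruitment of the SRC2-3 coactivator peptide to VDR; plates are read after 2 h at room temperature.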
# * hit, by the source's call; u = inconclusive; & = joins results of further samples. % is scaled to controls: 0 for no effect and ±100 for the full control effect; potency is read from the fitted curve at half-maximal effect.
SMILES,VDR inh
Cc1[nH]c2ccccc2c1C(=O)CN1C(=O)C(=O)N(C2CCCC2)C1=O,21%
Cc1cc2nc(-c3ccc(SCc4ccc(C#N)cc4)nc3)[nH]c2cc1C,3%
CCCNC(=O)C1CCN(S(=O)(=O)c2ccc3c(c2)CCCN3C(C)=O)CC1,0%
COc1ccccc1CNC(=O)COC(=O)c1ccc(Cl)c(N)c1,2%
O=C(C1Cc2ccccc2CN1S(=O)(=O)c1ccc(F)cc1)N1CCOCC1 (centres undefined),-10%
O=C(COc1ccccc1)Nc1ccc2c(c1)C(=O)N(CC1CCCO1)C2=O (centres undefined),13%
Cc1cccc(C(=O)NNC(=S)NC(=O)c2cccs2)c1,-17%
CC(=O)N1CCc2c(sc3c2c(=O)n(-c2cc(Cl)ccc2C)c(=O)n3Cc2ccccc2F)C1,17%
CCOc1ccc(C(=O)c2oc3ccccc3c2NC(=O)Cc2coc3ccc(CC)cc23)cc1,3%
Cc1cc(C)c2cc(C#N)c(NCCCNC(=O)CCC(=O)O)nc2c1,6%
CCC(NCc1cccnc1)c1ccc(OC)c(OC)c1 (centres undefined),-7%
CCOC(=O)C1CCN(C(=O)C2COc3ccccc3O2)CC1 (centres undefined),2%
COc1ccc2[nH]cc(CC(=O)O)c2c1,-13%
CCN1c2ccccc2NC2C1C(C(C)=O)C(=O)N2c1ccc(Cl)cc1 (centres undefined),-6%
COc1ccc2[nH]c(=O)c(CN(CC3CCCO3)C(=O)Nc3ccccc3OC)cc2c1 (centres undefined),-4%
O=c1cc(CN2CCC(Cc3ccccc3)CC2)nc2sccn12,-1%
CCOC(=O)Cn1nc(C)n(-c2ccc(C(C)C)cc2)c1=O,8%
O=C1c2ccccc2CCC12N=NCC2c1ccccc1 (centres undefined),2%
Cc1ccc(S(=O)(=O)c2nc(-c3ccccc3)oc2N2CCC(C(N)=O)CC2)cc1,3%
CCn1c(C(=O)N2CCC(C(=O)NCc3ccc4c(c3)OCO4)CC2)cc2sccc21,-22%
O=C(C=Cc1ccccc1O)c1ccccc1O,u
COc1cc(/C=N/n2cnnc2)ccc1OS(=O)(=O)c1ccccc1[N+](=O)[O-],3%
CC(C)CN(CCNC(=O)CN1C(=O)CSc2ccc(S(=O)(=O)N3CCOCC3)cc21)CC(C)C,-13%&18%
CC(N)=NCCCC[C@@H](N)C(=O)O,-1%
N/C(=N\OC(=O)C1CCCCC1)c1ccccn1,7%

# Later entries:
SMILES,VDR inh
O=C(O)CCCCCN1C(=O)/C(=C\c2cn(-c3ccccc3)nc2-c2cccs2)SC1=S,-19%
Cc1ccsc1/C=N/NC(=O)c1ccc2nc[nH]c2c1,-1%
Cn1c(=O)c2c(ncn2CC(=O)N2CCN(c3ccc([N+](=O)[O-])cc3)CC2)n(C)c1=O,-12%
COc1ccc(/C=N/NC(=O)CN2CCS(=O)(=O)CC2)cc1,3%
CC(=O)C(Sc1nnnn1-c1ccccc1)C(C)=O,1%
CC1(C)N=C(SCc2ccccc2Cl)c2ccccc2N1,9%
Nn1cnc2sc3c(c2c1=O)CCC3,-1%
O=[N+]([O-])c1ccc(NCc2ccccc2)nc1,0%
CCOc1ccccc1N(CC(=O)Nc1ccc(OC)c(OC)c1)S(=O)(=O)c1ccccc1,-21%
Cc1ccc(C(=O)NC(=S)Nc2ccc3[nH]c(=O)[nH]c3c2)cc1,6%
COC(=O)CC(CP(=O)(O)CN(C)C=O)C(=O)OC (centres undefined),-22%
CCN(CC(=O)Nc1ccc(Br)cc1)CC(=O)Nc1cc(C)on1,-1%
O=C(NCc1ccccc1)c1nc(S(=O)(=O)Cc2ccccc2)ncc1Cl,u
COc1ccc(CCNC(=O)CN2C(=O)CCSc3ccccc32)c(OC)c1,0%
CCOC(=O)C1=C(C)c2ccccc2OC1(C)C(=O)OCC (centres undefined),-9%&2%
N#CC1(NC(=O)COC(=O)c2cccc(-n3cnnn3)c2)CCCCC1,-16%
Cn1c(=O)oc2cc(S(=O)(=O)N3CCC(C(=O)Nc4ccc(F)c(Cl)c4)CC3)ccc21,-9%
Cc1ccccc1C(=O)OCn1nnc2ccccc2c1=O,-11%
NC(N)=Nc1nc(CSCC/C(N)=N/S(N)(=O)=O)cs1,u
CCN(CC)CCNc1nc2ccccc2n1C,-9%
Cc1ccc(Cn2nnnc2CN2CCC(NC(=O)c3ccccc3F)CC2)cc1,17%
Cc1ccc(N(C)S(=O)(=O)c2cccc(C(=O)Oc3ccc4c(C)cc(=O)oc4c3)c2)cc1,-2%
O=C(NNC(=O)c1ccc(Br)s1)c1csc(N2CCOCC2)n1,-3%
CCc1ccc(Sc2cc(C(=O)NCCN3CCOCC3)c3ccccc3n2)cc1,18%
CC(C)=C(NC(=O)c1ccccc1)C(=O)NC(Cc1ccccc1)C(=O)O (centres undefined),7%

# The results go on:
SMILES,VDR inh
COc1ccc(S(=O)(=O)N2CCOC2CNC(=O)C(=O)NCc2ccc(F)cc2)cc1 (centres undefined),-8%
Cc1cc(Nc2cc(F)ccc2C)n2nc(C)nc2n1,-6%
COc1ccccc1CNC(=O)C1CCN(S(=O)(=O)Cc2ccccc2)CC1,18%
O=C(Cc1cccs1)N/N=C/C=C/c1ccccc1,-23%
CC(NC(=O)CC(c1ccccc1)c1cc(Cl)ccc1O)c1ccccc1 (centres undefined),-15%
Cc1ccc(N(C(=O)Cn2nnc3ccccc32)C(C(=O)NCc2ccccc2)c2ccccn2)cc1 (centres undefined),0%
CN1c2ccccc2C(=O)/C(=C\Nc2ccc(F)cc2F)S1(=O)=O,13%
Cc1ccc(O)c(Nc2c3ccccc3nc3ccccc23)c1,-12%
COc1cccc(N2CCN(C3CC(=O)N(c4ccc(C)c(Cl)c4)C3=O)CC2)c1 (centres undefined),1%
C=CCn1c(C)c(/C=C/c2cc[n+](C)cc2)c2ccccc21,-18%
COc1ccc(CNc2ncnc3ccc(-c4ccc5c(c4)OCO5)cc23)c(OC)c1,-15%
CC(=O)OCC(=O)[C@@]1(O)CC[C@@H]2[C@H]3CCC4=CC(=O)CC[C@]4(C)[C@]3(F)[C@@H](O)C[C@@]21C,4%
Cc1ccc2c(c1)c(=O)c1ccccc1n2CCCC(=O)Nc1ccc(F)cc1F,-2%
Cc1ccc(C2CC(=O)Nc3sc(C(N)=O)c(N)c32)cc1 (centres undefined),1%
O=C1CCN(Cc2ccc(O)cc2)CCN1[C@H](CO)Cc1ccccc1,-26%
COc1cc(/C=C/c2ccc3cccc(OC)c3n2)c(O)c([N+](=O)[O-])c1,-23%
O=C1N(c2ccc(Cl)c(Cl)c2)CN(Cc2ccccc2)CN1n1cnnc1,2%
Cc1ccc(S(=O)(=O)N(C)c2ccccc2C(=O)Nc2ccc(F)cc2F)cc1,-15%
CCCCN(CC)S(=O)(=O)c1ccc(C(=O)N=c2sc3cc(NC(C)=O)ccc3n2C)cc1,3%
Cc1ccc([N+](=O)[O-])cc1NC(=O)CN(c1ccccc1)S(=O)(=O)N(C)C,7%
CC1(C)OC(=O)C(=CNCCc2ccc(O)cc2)C(=O)O1,9%
COc1ccc(S(=O)(=O)N2CCN(Cc3ccc4c(c3)OCO4)CC2)cc1OC,3%
Brc1cnc(N2CCCC2)nc1N1CCOCC1,-8%
CCOC(=O)c1noc2nc(C)n(CC(=O)Nc3ccc(Br)cc3C)c(=O)c12,10%
Cc1ccc(C)c(N2CCN(C(=O)C3CCCN(S(=O)(=O)c4cccc5nsnc45)C3)CC2)c1 (centres undefined),-10%

# Shown bar-delimited: entries from further up
Molecule | VDR inh
Cc1ccc(O)c(Nc2c3ccccc3nc3ccccc23)c1 | -12%
COc1cccc(N2CCN(C3CC(=O)N(c4ccc(C)c(Cl)c4)C3=O)CC2)c1 (centres undefined) | 1%
C=CCn1c(C)c(/C=C/c2cc[n+](C)cc2)c2ccccc21 | -18%
COc1ccc(CNc2ncnc3ccc(-c4ccc5c(c4)OCO5)cc23)c(OC)c1 | -15%

# Other compounds
SMILES,VDR inh
O=C1NCCO1,u
Cc1ccc(NC(=O)/C=C/C(=O)O)c([N+](=O)[O-])c1,-14%
CCOC(=O)c1c(C)c(C(=O)NCc2ccco2)c(C)n1C,-3%
O=C(O)C1CC=CC2CCN(C3CC3)C(=O)C21 (centres undefined),-3%
CCc1ccc(NC(=O)Cn2nc(C(F)(F)F)c3c2CCC3)cc1,-9%
Cc1ccc(-c2nc(-c3nccc4ccccc34)oc2-c2ccccc2)cc1,-9%
O=C(Nc1cccc(C(F)(F)F)c1)c1cccc(C(=O)Nc2cccc(C(F)(F)F)c2)c1,-16%
CCCCOC(=O)CN1C(=O)c2ccc(C(=O)OCCCC)cc2C1=O,-5%
COC(=O)c1cc(-c2ccccc2)on1,13%
CCOc1ccc(C(=O)NCC(=O)OCc2c(C)noc2C)cc1,-20%
O=C(Nc1ccc(N2CCOCC2)cc1Cl)C1CCN(C(=O)OCc2ccccc2)CC1,3%
CCCCN(C)CCCNC(=O)c1cc(-c2cccs2)nc2ccccc12,-17%
O=C(NCCc1c[nH]c2ccccc12)C1CCN(S(=O)(=O)c2ccccc2F)CC1,6%
Cc1sc(NC(=O)c2ccc(OCC(C)C)cc2)c(C(N)=O)c1-c1ccc(Cl)cc1Cl,-6%
O=C(O)CCC(NC(=O)C1CCCN1C(=O)OCc1ccccc1)C(=O)O (centres undefined),9%
COc1ccc(NS(=O)(=O)c2ccc(NC(=S)NC(=O)CC(C)C)cc2)cc1,-6%
CN1OC[C@@H]2CN(C(=O)C(C)(C)C)[C@H](c3cccc(N4CCOCC4)c3)C[C@@H]21,-11%
CCc1ccc(C2c3[nH]c4ccccc4c3CCN2C(=O)c2cc[n+]([O-])cc2)cc1 (centres undefined),u
C=CC[C@H](CC(=O)N(CCO)Cc1ccccc1)C(=O)N[C@@H](COC(=O)[C@@H](CC=C)CC(=O)OC(C)(C)C)Cc1c[nH]c2ccccc12,-2%
CCOc1ccc(NS(=O)(=O)c2ccc3c(c2)N(C(C)=O)CCS3)cc1,-18%
CCCc1cc(-n2ccnc2)n2c(nc3ccccc32)c1C#N,-15%
N#CC1=C(N)SC(N)=C(C#N)C1C1C=CCCC1 (centres undefined),-17%
Cc1ccc(NC(=O)CCNS(=O)(=O)c2ccc(OC(F)(F)F)cc2)c(O)c1,-4%
COc1ccc(C(=O)CSc2nnc(-c3cnccn3)n2Cc2ccco2)cc1,16%
O=C(/C=C/c1ccc(Br)o1)NCc1ccccc1,89µM*

# Continued.
SMILES,VDR inh
O=C(COc1ccc(Cl)cc1)Nc1ccc2c(c1)nc1n2CCOC1,9%
CCOc1ccc(NC(=O)C2CCN(S(=O)(=O)c3c(C)noc3/C=C/c3ccco3)CC2)cc1,-7%
COC(=O)[C@@H](NC(=O)NCCC1=CCCCC1)C(C)C,-2%
CCOC(=O)C(=O)Nc1nnc(C2CCCCC2)s1,-13%
O=c1cc(-c2ccc(F)cc2)oc2ccccc12,-24%
CC(=O)N1CCC[C@@]2(CCN(C(c3ccccc3)c3ccccc3)C2)C1,-18%
Cc1cc(NC(=O)CCN2CCC(C(N)=O)CC2)ccc1Br,-1%
COc1ccc(N2CCN(S(=O)(=O)c3cccc4nsnc34)CC2)cc1,-1%
CCCn1c(C(=O)OC)cc2c1ccn2-c1ccc(F)cc1,13%
O=C(OC(C(=O)NCc1cccs1)c1ccccc1Cl)c1ccco1 (centres undefined),-20%
Cc1ccc(COC(=O)CCCN=C2NS(=O)(=O)c3ccccc32)cc1,-20%
COc1cc2nc(CN3CCN(S(=O)(=O)c4ccccc4C(F)(F)F)CC3)[nH]c(=O)c2cc1OC,21%
COc1ccc(NC(=O)c2ccc3c(c2)OCO3)cc1S(=O)(=O)N1CCOCC1,-13%
CCC(C)(C)C1CCc2[nH]nc(C(=O)NC3CCCCC3)c2C1 (centres undefined),-4%
O=C(CSc1nc2c(c(=O)n1-c1ccccc1)SCC2)NCC1CCCO1 (centres undefined),9%
CC(=O)N1CCN(c2cc(N3CCc4ccccc4C3)c(F)cc2[N+](=O)[O-])CC1,-5%
COc1nc(NCCc2ccc(OC)c(OC)c2)nc(Nc2ccccc2)n1,6%
O=C(OC1CCOC1=O)c1ccc(NS(=O)(=O)c2cccs2)cc1 (centres undefined),-10%
Cc1ccc(OCC(=O)NC(=S)Nc2ccc3c4c(cccc24)CC3)cc1,-18%
COc1ccc(CNC(=O)COC(=O)CN2C(=O)C(C)Oc3ccc(C)cc32)cc1 (centres undefined),-4%
CCN(C(=O)c1cn(CC)c(=O)c2cc(OC)c(OC)cc12)c1ccccc1F,-16%
CCCCn1ccnc1C(=O)c1cccc(S(=O)(=O)N2c3ccccc3CC2C)c1 (centres undefined),12%
CCOc1ccccc1NC1c2ccccc2C(=O)N1Cc1ccco1 (centres undefined),1%
CCOc1ccc(CNC(=O)CCSCc2ccccc2F)cc1OC,-15%
N#Cc1ccc(/C=N/NC(=O)c2cc(-c3cccs3)nc3ccccc23)cc1,4%
O=C(Cn1cc([N+](=O)[O-])nc1[N+](=O)[O-])N1CCN(c2ccccc2)CC1,8%
CCOC(=O)c1sc(C)c2c1NC(c1ccc(N(C)C)cc1)NC2=O (centres undefined),-3%
Cc1onc(-c2c(Cl)cccc2Cl)c1-c1nc2cc(Cl)ccc2c(=O)o1,-16%

# Five records drawn at random from the list so far:
SMILES,VDR inh
Cc1cc(NC(=O)CCN2CCC(C(N)=O)CC2)ccc1Br,-1%
CC(=O)N1CCC[C@@]2(CCN(C(c3ccccc3)c3ccccc3)C2)C1,-18%
CCCCn1ccnc1C(=O)c1cccc(S(=O)(=O)N2c3ccccc3CC2C)c1 (centres undefined),12%
Cc1ccc(OCC(=O)NC(=S)Nc2ccc3c4c(cccc24)CC3)cc1,-18%
O=C(Cn1cc([N+](=O)[O-])nc1[N+](=O)[O-])N1CCN(c2ccccc2)CC1,8%

# Individual results from the entries so far:
# Reading of CCCn1c(C(=O)OC)cc2c1ccn2-c1ccc(F)cc1 in VDR inh: 13%
# Reading of CCOc1ccccc1NC1c2ccccc2C(=O)N1Cc1ccco1 (centres undefined) in VDR inh: 1%

# An excerpt. The share of hits here may be higher or lower than overall.
